Screening data: PubChem, Broad Institute
rRNA inh HTS: selective bacterial rRNA inhibition in E. coli | E. coli WT GFP vs humanized-ribosome RFP mutants, fluorescence, 24 h; active compounds read low; DMSO median 0, no signal -100 | GFP signal change (wild-type ribosome), % (no concentration beside the values) | 350,000 compounds, 1.6% hits | AID 720706;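 active means significant combined selectivity score with lowered wild-type GFP, culture density cut under 30%, mutant RFP and density less affected; inactive means any of these conditions unmet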; further: one replicate is shown; some compounds called inactive have numbers as strong as hits
rRNA inh HTS OD600: further read-out of rRNA inh HTS, marked with its call; OD600 change, %; measured here: OD600 growth;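 optical density of the mix in the first replicate; 0 = DMSO median and -100 = no signal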
rRNA inh HTS RFP: further read-out of rRNA inh HTS, marked with its call; RFP signal change, %; measured here: RFP humanized mutant strains;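 first replicate; 0 = DMSO median and -100 = no signal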
* = called active by the depositor; & = joins results of further samples. Only part of the results is shown; rates above refer to the full screens.

The line under a structure holds: rRNA inh HTS	rRNA inh HTS OD600	rRNA inh HTS RFP
O=C(C[C@H]1CC[C@H]2NC[C@@H](O)COC[C@@H]2O1)Nc1ccc(-c2ccccc2)cc1
  0	5	-0.5
COc1ccc2c3c([nH]c2c1)[C@@H](CO)N(Cc1nccs1)CC31CN(C(=O)C2CC2)C1
  2	1	-0.7
CCC(=O)Nc1ccc2c(c1)OC[C@@H](C)N(C(=O)c1ccncc1)C[C@@H](C)[C@@H](OC)CN(C)C2=O
  1	-2	-1.9
C[C@H]1CN([C@@H](C)CO)S(=O)(=O)c2ccc(-c3ccc(C(=O)N(C)C)cc3)cc2O[C@H]1CN(C)C(=O)C1CC1
  2	-3	-2.4
COc1ccc2c3c([nH]c2c1)[C@@H](CO)N(Cc1ccccn1)CC31CCN(C(=O)CC2CC2)CC1
  1	1	2.9
COc1ccc(C#Cc2ccc3c(c2)O[C@@H](CN(C)C(=O)c2ccccn2)[C@@H](C)CN([C@@H](C)CO)S3(=O)=O)cc1
  2	0	16
CO[C@H]1CN(C)C(=O)c2ccc(NC(=O)CC(F)(F)F)cc2OC[C@H](C)N(C(=O)C2CCOCC2)C[C@H]1C
  0	0	0.8
CN1C(=O)c2cc(NC(=O)Nc3ccccc3F)ccc2OC[C@H]2O[C@@H](CC(=O)NCc3ccc(-c4ccccc4)cc3)CC[C@@H]21
  2	-1	0.6
O=C(N[C@H]1CC[C@H](CC(=O)N2CCC(Cc3ccccc3)CC2)O[C@@H]1CO)c1cnccn1
  -9	-8	0.0
C[C@H]1CN([C@@H](C)CO)S(=O)(=O)c2ccc(C#Cc3ccc(F)cc3)cc2O[C@H]1CN(C)S(=O)(=O)c1cn(C)cn1
  1	2	6.3
O=C(C[C@@H]1C[C@H]2c3cc(NC(=O)Nc4ccccc4)ccc3O[C@H]2[C@H](CO)O1)NCC1CC1
  -2	-5	1.3
CCC(=O)Nc1ccc2c(c1)C(=O)N(C)C[C@@H](OC)[C@@H](C)CN(C(=O)NC(C)C)[C@@H](C)CO2
  -1	4	0.9
COc1cccc(-c2ccc3c(c2)O[C@H](CN(C)C(C)=O)[C@@H](C)CN([C@@H](C)CO)S3(=O)=O)c1
  -8	-15	-3.7
Cc1noc(C)c1NC(=O)N(C)C[C@H]1OCCCC[C@H](C)Oc2ccc(NS(=O)(=O)c3ccc(F)cc3)cc2C(=O)N([C@@H](C)CO)C[C@@H]1C
  -2	0	4.3
C[C@@H]1CN([C@@H](C)CO)C(=O)c2cc(NS(=O)(=O)c3ccc(F)cc3)ccc2O[C@@H]1CN(C)Cc1ccccc1
  1	3	1.1
CCCNC(=O)N1C[C@@H]2[C@H](c3ccccc31)[C@H](CO)N2Cc1ccc2c(c1)OCO2
  3	8	-3.6
CO[C@@H](CN(C)S(=O)(=O)c1ccccc1)[C@@H](C)CN(Cc1ccccc1Cl)[C@@H](C)CO
  -1	-7	2.8
Cc1cccc(NNC(=S)Nc2ccccc2)c1
  -7	-3	-2.5
CC(C)(O)C#Cc1cccc(-c2nc(C(=O)O)cc3c2[C@H](CCO)N(S(=O)C(C)(C)C)C3)c1 (stereo partly specified)
  5	7	3.9
O=C(OCc1ccccc1)N1CCC2CC1c1c2cccc1N1CCOCC1 (stereo unspecified)
  -43	-73	-13
O=S(=O)(N[C@H]1CC[C@@H](CCn2cc(-c3cccnc3)nn2)O[C@H]1CO)c1ccc(Cl)cc1
  -6	-3	1.2
C[C@@H]1CN([C@H](C)CO)C(=O)c2cc(C#C[C@@H](C)O)cnc2O[C@@H]1CN(C)C(=O)CN(C)C
  4	1	0.8
COCC(=O)N(C[C@@H]1N[C@@H](CO)[C@H]1c1ccc(C2=CCCC2)cc1)C(C)C
  3	3	2.1
O=C(N[C@H]1CC[C@@H](CCNC(=O)C2CC2)O[C@@H]1CO)c1ccccn1
  -1	-1	-3.2
C[C@@H]1CN([C@H](C)CO)C(=O)c2cc(NC(=O)Cn3cnnn3)ccc2O[C@H]1CN(C)S(=O)(=O)c1ccc(Cl)cc1
  1	7	-4.1
CC(=O)N1C[C@@H]2C(c3ccc(Br)cc3)[C@H](C1)N2S(C)(=O)=O (stereo partly specified)
  -3	-6	-1.4
CO[C@@H]1CN(C)C(=O)c2ccc(NC(C)=O)cc2OC[C@H](C)N(C(=O)CN2CCOCC2)C[C@@H]1C
  -1	2	-1.8
C[C@@H]1CN([C@H](C)CO)C(=O)c2cccc(NC(=O)c3ccncc3)c2O[C@H]1CN(C)S(=O)(=O)c1cccs1
  3	5	1.0
COc1ccc(CNC(=O)C[C@@H]2CC[C@@H](NC(=O)c3ccc4c(c3)OCO4)[C@@H](CO)O2)cc1
  2	1	0.4
O=C(C1CCCC1)N1CC(=O)N2[C@H](CO)[C@H](c3ccc(C#CC4CCCC4)cc3)[C@@H]2C1
  -53	-75	-5.4
CCc1nc2ccc(C(=O)N3CCN(C(=O)c4ccco4)CC3)cn2c1N(CCC(C)C)CCN(C)C
  8	11	0.7
CC(C)C[C@H]1CN(CCCC[C@H]2CNC(=O)C(=O)N2CCc2ccc(O)cc2)C(=O)C(=O)N1Cc1ccccc1
  -6	3	-1.3
Cc1ccc(S(=O)(=O)N(C)C[C@H]2Oc3ccc(NC(=O)Nc4cccc5ccccc45)cc3C(=O)N([C@@H](C)CO)C[C@H]2C)cc1
  2	3	-1.4
O=C(NCC[C@H]1CC[C@H](NC(=O)C2CCC2)[C@H](CO)O1)Nc1ccc(Cl)cc1
  -18	-26	4.5
Cc1ccc(S(=O)(=O)Nc2cccc3c2O[C@@H](CN(C)Cc2ccccc2)[C@@H](C)CN([C@H](C)CO)C3=O)cc1
  1	1	-0.6
C[C@H](CO)N1C[C@H](C)[C@H](CN(C)S(=O)(=O)c2ccccc2F)Oc2cc(-c3ccncc3)ccc2S1(=O)=O
  -5	-10	-4.2
O=c1[nH]c(C(F)(F)F)nc2c1nc1n2CCC1
  -1	-1	-4.0
CC(=O)Nc1ccc2c(c1)CC(=O)N(C)C[C@@H](C)[C@@H](CN(C)C)O2
  1	4	0.3
COc1cccc(CN2[C@H](CO)[C@H](c3ccccc3)C23CN(C(=O)C2CCCCC2)C3)c1
  -12	-43	3.6
Cc1ccc(S(=O)(=O)N(C)C[C@@H]2OCCCC[C@@H](C)Oc3ccc(NC(=O)c4ccccc4)cc3C(=O)N([C@H](C)CO)C[C@@H]2C)cc1
  -1	0	-1.9

In the list so far, 4 have a Cl atom:
The line under a structure holds: rRNA inh HTS	rRNA inh HTS OD600	rRNA inh HTS RFP
CO[C@@H](CN(C)S(=O)(=O)c1ccccc1)[C@@H](C)CN(Cc1ccccc1Cl)[C@@H](C)CO
  -1	-7	2.8
O=S(=O)(N[C@H]1CC[C@@H](CCn2cc(-c3cccnc3)nn2)O[C@H]1CO)c1ccc(Cl)cc1
  -6	-3	1.2
C[C@@H]1CN([C@H](C)CO)C(=O)c2cc(NC(=O)Cn3cnnn3)ccc2O[C@H]1CN(C)S(=O)(=O)c1ccc(Cl)cc1
  1	7	-4.1
O=C(NCC[C@H]1CC[C@H](NC(=O)C2CCC2)[C@H](CO)O1)Nc1ccc(Cl)cc1
  -18	-26	4.5

Later entries
The line under a structure holds: rRNA inh HTS	rRNA inh HTS OD600	rRNA inh HTS RFP
Cc1ccc(C2NC(=O)c3n[nH]c(C(C)C)c32)cc1 (stereo unspecified)
  11	1	4.8
COc1ccccc1S(=O)(=O)N[C@@H]1C=C[C@H](CC(=O)N2CCN(C)CC2)O[C@@H]1CO
  4	12	-3.5
C[C@H]1CN([C@@H](C)CO)C(=O)c2cc(NS(=O)(=O)c3ccccc3)ccc2O[C@@H]1CN(C)Cc1ccc(C(=O)Nc2ccccc2N)cc1
  -2	1	-1.4
C[C@@H]1CN([C@H](C)CO)C(=O)c2cc(C3=CCCCC3)cnc2O[C@@H]1CN(C)C(=O)c1ccc2c(c1)OCO2
  4	4	-1.2
COc1ccc(S(=O)(=O)Nc2ccc3c(c2)C(=O)N([C@H](C)CO)C[C@@H](C)[C@H](CN(C)CC2CCCCC2)O3)cc1
  4	0	-0.9
Cc1ccc(S(=O)(=O)N[C@@H]2CC[C@H](CC(=O)NCCN3CCCCC3)O[C@@H]2CO)cc1
  4	4	-0.8
Cc1ccc(S(=O)(=O)Nc2ccc3c(c2)CC(=O)N([C@@H](C)CO)C[C@@H](C)[C@@H](CN(C)S(=O)(=O)c2c(C)noc2C)O3)cc1
  1	-3	-0.2
C[C@H](c1ccccc1)N1C[C@@H](COCc2ccccc2)Oc2cc(N3CC[C@@H](O)C3)ccc2S1(=O)=O
  -9	-6	6.0
C[C@H]1CN([C@@H](C)CO)C(=O)c2cc(NS(=O)(=O)c3ccccc3)ccc2O[C@@H]1CN(C)S(=O)(=O)c1ccc(Cl)cc1
  0	-8	2.8
CC=Cc1ccc2n(c1=O)C[C@@H]1[C@@H](CO)[C@H](C(=O)NCCC)N(C(=O)C3CCOCC3)[C@H]21 (mixture of isomers)
  5	10	2.6
CCC(=O)Nc1ccc2c(c1)C(=O)N(C)C[C@@H](OC)[C@H](C)CN(CCC(F)(F)F)[C@@H](C)CO2
  -2	-3	-0.6
CCC(=O)N(C)C[C@@H]1Oc2ncc(-c3ccccc3F)cc2C(=O)N([C@@H](C)CO)C[C@H]1C
  -5	3	-1.1
NC(c1csc(Nc2cnccn2)n1)c1ccccc1Cl (stereo unspecified)
  2	3	4.2
COc1ccc(S(=O)(=O)N(C)C[C@@H]2Oc3ncc(C#CC(C)(C)O)cc3C(=O)N([C@H](C)CO)C[C@@H]2C)cc1
  0	4	-1.4
CC1(C(=O)Nc2ccc3c(c2)OCCO3)CSCC(=O)N1C1CCN(Cc2ccccc2)CC1 (stereo unspecified)
  2	7	2.2
CC(C)CNc1ncnc2c1ncn2[C@H]1CN(Cc2cccc3ccccc23)C[C@@H](CO)O1
  -2	-44	1.0
COc1ccc(S(=O)(=O)Nc2ccc3c(c2)CC(=O)N([C@@H](C)CO)C[C@H](C)[C@@H](CN(C)Cc2ccc(Cl)c(Cl)c2)O3)cc1
  2	7	1.2
CO[C@H]1CN(C)C(=O)c2ccc(NC(C)=O)cc2OC[C@@H](C)N(Cc2ccc(F)cc2)C[C@@H]1C
  -6	-14	3.3
C[C@H](CO)N1C[C@H](C)[C@H](CN(C)Cc2ccncc2)Oc2c(NS(=O)(=O)c3ccc(Cl)cc3)cccc2C1=O
  0	1	4.0
O=C(C[C@H]1CC[C@H]2[C@@H](COC[C@H](O)CN2Cc2cccc(C(F)(F)F)c2)O1)NCc1ccccc1
  -16	-67	13
CNC[C@@H]1Oc2ccc(NS(C)(=O)=O)cc2CC(=O)N(C)C[C@@H]1C
  3	11	-0.2
C[C@@H]1CN([C@@H](C)CO)C(=O)c2cc(NC(=O)Nc3ccccc3)ccc2O[C@@H](C)CCCCO[C@@H]1CN(C)C(=O)Cc1ccccc1
  -1	7	2.4
C[C@@H]1CN([C@H](C)CO)C(=O)Cc2cc(NS(=O)(=O)c3ccc(F)cc3)ccc2O[C@@H]1CN(C)Cc1ccncc1
  -3	-8	-1.5
CC(C)CC#Cc1ccc([C@@H]2[C@H]3CN(C(=O)Nc4ccc(F)cc4)CC(=O)N3[C@H]2CO)cc1
  -18	-28	28
COc1ccc(CN(C)C[C@@H]2OCCCC[C@H](C)Oc3ccc(NS(=O)(=O)c4c(C)noc4C)cc3C(=O)N([C@@H](C)CO)C[C@H]2C)cc1
  1	13	3.1
COCC(=O)Nc1ccc2c(c1)C(=O)N(C)C[C@H](OC)[C@H](C)CN(Cc1cncnc1)[C@H](C)CO2
  2	3	-0.9
C[C@@H]1CN([C@H](C)CO)C(=O)Cc2cc(NC(=O)Nc3cccc4ccccc34)ccc2O[C@@H]1CN(C)Cc1ccc(Cl)c(Cl)c1
  2	8	0.1
C[C@@H]1CN([C@@H](C)CO)C(=O)c2cc(NC(=O)CCCCCC(=O)Nc3ccccc3N)ccc2O[C@@H]1CN(C)S(C)(=O)=O
  2	9	1.6
CC(C)NC(=O)N1[C@@H]2CN(CC(F)(F)F)C[C@H]1C2c1ccc(Br)cc1 (stereo partly specified)
  -14	-35	-2.8
CCCC(=O)Nc1ccc2c(c1)C(=O)N(C)[C@@H]1CC[C@@H](CC(=O)Nc3cn(C)nc3C)O[C@H]1CO2
  4	0	-1.9
O=C(Nc1ccccc1F)N1C[C@@H]2N[C@H](C1)C2c1ccc(/C=C/c2ccccc2)cc1 (stereo partly specified)
  -56&-57	-77&-77	-16&-8.2

Looked up by structure from the list above (two):
The line under a structure holds: rRNA inh HTS	rRNA inh HTS OD600	rRNA inh HTS RFP
COCC(=O)Nc1ccc2c(c1)C(=O)N(C)C[C@H](OC)[C@H](C)CN(Cc1cncnc1)[C@H](C)CO2
  2	3	-0.9
C[C@@H]1CN([C@H](C)CO)C(=O)c2cccc(NC(=O)c3ccncc3)c2O[C@H]1CN(C)S(=O)(=O)c1cccs1
  3	5	1.0
